AF4-AF9 inh: blocks AF4 peptide binding to human AF9; P42568; AlphaScreen, biotin-AF4 peptide binding to FLAG-AF9; inhibition, % at 10 µM; 350,000 compounds, 0.47% hits; AID 651704;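 active means every replicate reaching a set inhibition limit, whatever the replicate mean, cut at about 25% in these data; inconclusive means mean inhibition reaches that limit but some replicates miss it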;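 further: 0% = plate neutral control median and 100% = total signal loss; the record names both 10 and 1 µM as test concentration; the first replicate is given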
Target sequence (P42568 whole entry, looked up): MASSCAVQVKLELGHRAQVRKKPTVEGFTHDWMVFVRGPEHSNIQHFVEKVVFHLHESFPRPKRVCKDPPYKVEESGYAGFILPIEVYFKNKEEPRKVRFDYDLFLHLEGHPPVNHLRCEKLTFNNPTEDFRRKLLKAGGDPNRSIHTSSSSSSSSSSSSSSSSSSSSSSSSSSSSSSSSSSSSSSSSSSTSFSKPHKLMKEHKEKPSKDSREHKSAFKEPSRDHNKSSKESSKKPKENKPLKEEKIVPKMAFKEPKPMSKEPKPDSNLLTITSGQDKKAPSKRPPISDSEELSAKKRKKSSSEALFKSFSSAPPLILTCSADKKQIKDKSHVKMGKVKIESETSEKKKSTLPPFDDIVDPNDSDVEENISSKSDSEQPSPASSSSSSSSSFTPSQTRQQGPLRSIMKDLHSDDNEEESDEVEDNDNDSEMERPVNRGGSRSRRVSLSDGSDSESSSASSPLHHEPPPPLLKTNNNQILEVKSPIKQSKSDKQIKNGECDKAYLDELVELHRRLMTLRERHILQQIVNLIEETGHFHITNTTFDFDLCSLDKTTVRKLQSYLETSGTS
FGF22 binding: FGF22 (human) thermal shift binding. calls only at 9.99 µM. recombinant FGF22 thermal shift, SYPRO orange fluorescence; percent of sucrose octasulfate shift, DMSO zero. 340,000 compounds, 1.5% hits. Q9HCT0;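 active means melting point raised past a set limit in the mean and every replicate; inconclusive means no clear call; three in four hits are not shown here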
Target sequence (Q9HCT0 whole entry, looked up): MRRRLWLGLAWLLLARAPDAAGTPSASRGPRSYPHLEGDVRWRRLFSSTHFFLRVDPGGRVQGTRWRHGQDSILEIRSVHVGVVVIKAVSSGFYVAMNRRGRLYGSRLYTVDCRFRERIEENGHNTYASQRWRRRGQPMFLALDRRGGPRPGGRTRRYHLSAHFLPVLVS
rRNA inh HTS: selective bacterial rRNA inhibition in E. coli | E. coli WT GFP vs humanized-ribosome RFP mutants, fluorescence, 24 h; stronger effect = lower value; DMSO median 0, no signal -100 | 350,000 compounds, 1.6% hits | GFP signal change (wild-type ribosome), % (test concentration not listed);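 active means significant combined selectivity score with lowered wild-type GFP, culture density cut under 30%, mutant RFP and density less affected; inactive means any of these conditions unmet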; further: one replicate is shown; some compounds called inactive have numbers as strong as hits
rRNA inh HTS OD600: recorded beside rRNA inh HTS, whose call it bears; OD600 change, %; measured here: OD600 growth;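 optical density of the mix in the first replicate; 0 = DMSO median and -100 = no signal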
rRNA inh HTS RFP: recorded beside rRNA inh HTS, whose call it bears; RFP signal change, %; measured here: RFP humanized mutant strains;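 first replicate; 0 = DMSO median and -100 = no signal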
* = called active by the depositor; i = inactive; ? = inconclusive; + = active, no number; & = joins results of further samples. These rows are one share of the data (hit frequency here may not be typical).

SMILES	AF4-AF9 inh	FGF22 binding	rRNA inh HTS	rRNA inh HTS OD600	rRNA inh HTS RFP
C[C@@H]1CN([C@H](C)CO)C(=O)c2cc(NS(=O)(=O)c3ccc(Cl)cc3)ccc2O[C@H]1CN(C)Cc1ccncc1	-1.2	i	-7.6	-3.1	4.0
C[C@@H]1CN([C@@H](C)CO)C(=O)c2cccc(NC(=O)C3CC3)c2O[C@H]1CN(C)C(=O)Nc1ccc2c(c1)OCO2	-13.7	i	4.8	4.7	-1.2
C[C@H](CO)N1C[C@H](C)[C@@H](CN(C)Cc2ccc(Cl)c(Cl)c2)Oc2c(NC(=O)Nc3ccc4c(c3)OCO4)cccc2C1=O	4.1	i	-3.7	-5.5	-1.5
O=C(NC(c1ccc(-c2ccccc2)cc1)c1cnccn1)C1CCN(CCN2C(=O)c3ccccc3C2=O)CC1 (centres undefined)	13.1	i	4.4	2.4	6.4
C[C@@H]1Cn2cnc(C(=O)NCc3ccc(CNC(=O)OC(C)(C)C)cc3)c2C(=O)N1	-1.1	i	7.9	8.8	1.2
C[C@H](CO)N1C[C@H](C)[C@@H](CN(C)C(=O)c2ccc(N3CCN(C)CC3)cc2)OCc2cnnn2CCCC1=O	-5.0&-2.6&-3.3	i	1.9&5.5	-0.1&20.0	1.2&1.1
CO[C@@H]1CN(C)C(=O)c2ccc(NC(=O)Nc3c(C)noc3C)cc2OC[C@@H](C)N(CCC(F)(F)F)C[C@H]1C	-11.5	i	-1.2	-5.9	0.2
COCCNC(=O)C1CCCN(C(=O)c2ccc(F)c(C)c2)CC1 (centres undefined)	-1.8	i	11.3	21.1	-1.0
O=C(Nc1ccc2c(c1)[C@@H]1C[C@H](CC(=O)N3CCCCC3)O[C@H](CO)[C@@H]1O2)C1CCOCC1	-2.6	i	-1.2	-1.4	1.6
O=C(C[C@H]1CC[C@@H]2NC[C@@H](O)COC[C@H]2O1)NCc1ccc(Oc2ccccc2)cc1	7.4	i	3.7	11.7	0.0
C[C@@H]1CCCCO[C@H](CN(C)S(=O)(=O)c2cn(C)cn2)[C@@H](C)CN([C@@H](C)CO)C(=O)c2cc(NC(=O)c3ccccc3)ccc2O1	-7.4	i	-0.1	-0.2	0.1
C[C@H]1CN([C@@H](C)CO)C(=O)CCCn2nncc2CO[C@H]1CN(C)C(=O)Nc1ccc(N2CCCCC2)cc1	?	i	4.5&0.6	20.3&2.1	22.5&8.7
C[C@H](CO)N1C[C@H](C)[C@H](CN(C)Cc2ccc3c(c2)OCO3)Oc2ccc(NC(=O)CCC(F)(F)F)cc2CC1=O	0.8	i	-3.4	-10.2	2.2
C[C@H](NC(=O)C[C@H]1C=C[C@@H](NC(=O)c2cccnc2)[C@H](CO)O1)c1ccccc1	-12.9	i	2.2	8.1	2.0
C[C@@H]1CN([C@H](C)CO)C(=O)Cc2cc(NS(=O)(=O)c3cccs3)ccc2O[C@H]1CN(C)S(=O)(=O)c1ccccc1	1.3	i	-0.9	7.8	-1.0
CC(C)C#Cc1cnc2c(c1)C(=O)N([C@H](C)CO)C[C@H](C)[C@H](CN(C)C(=O)c1ccccc1F)O2	-4.8	i	-0.2	-2.4	-0.8
C[C@H](NC(=O)C[C@@H]1C[C@@H]2c3cc(NC(=O)c4cccnc4)ccc3O[C@@H]2[C@H](CO)O1)c1ccccc1	-0.6	i	1.6	1.1	2.5
CC(C)NC(=O)N(C)C[C@@H]1OCCCC[C@@H](C)Oc2ccc(NC(=O)CCCN(C)C)cc2C(=O)N([C@H](C)CO)C[C@H]1C	-5.7	i	2.8	16.0	2.3
Cc1noc(C)c1NC(=O)Nc1ccc2c(c1)C(=O)N([C@H](C)CO)C[C@H](C)[C@@H](CN(C)C(=O)Nc1c(C)noc1C)OCCCC[C@@H](C)O2	-1.3	i	1.0	2.8	-3.2
C[C@H](NC(=O)C[C@@H]1CC[C@@H](NC(=O)Cc2ccccn2)[C@H](CO)O1)c1ccccc1	-0.7	i	0.2	-6.6	-0.3
OC[C@@H]1[C@H](c2ccc(-c3ccc(F)cc3)cc2)[C@@H]2CN(Cc3ccccn3)CCCCN12	-16.9	i	0.7	-6.7	12.1
C[C@H]1CN([C@@H](C)CO)C(=O)c2cc(C#CC3(O)CCCC3)cnc2O[C@H]1CN(C)C(=O)C1CCOCC1	-7.5	i	2.3	-0.5	-1.8
C[C@H]1CN([C@@H](C)CO)C(=O)c2cc(NS(=O)(=O)c3ccccc3)ccc2O[C@@H]1CN(C)CC1CCCCC1	-2.0	i	0.8	-7.3	-1.4
C[C@H](CO)N1C[C@H](C)[C@H](CN(C)Cc2ccc(Cl)c(Cl)c2)Oc2ccc(NC(=O)CCN3CCOCC3)cc2C1=O	-0.2	i	1.9	-3.4	1.2
CC(=O)N1[C@H](CO)[C@H](c2ccccc2)C12CN(C(=O)CN1CCOCC1)C2	-2.0	i	1.6	3.3	-2.1
CCc1ccccc1Oc1nc(NCCOC)nc2cc(-c3ccccc3)sc12	-1.5	i	6.1	28.0	-0.4
COC(=O)c1cc2c(c3c4cc(OC)ccc4n(S(=O)(=O)c4ccc(C)cc4)c13)C(=O)N(Cc1ccccc1)C2	0.4	i	15.1	2.0	10.0
Cc1noc(C)c1NC(=O)N(C)C[C@@H]1Oc2c(NS(=O)(=O)c3cn(C)cn3)cccc2C(=O)N([C@@H](C)CO)C[C@@H]1C	-2.8	i	6.3	6.4	-0.5
O=C(N[C@@H]1CC[C@H](CCNS(=O)(=O)c2ccc(F)cc2)O[C@@H]1CO)c1cccc(F)c1	-1.3	i	0.9	-1.0	-0.7
CO[C@@H]1CN(C)C(=O)c2ccc(NC(=O)c3ccccc3F)cc2OC[C@H](C)N(CC2CCOCC2)C[C@@H]1C	-0.6	i	-0.9	-1.4	-0.4
O=C(C[C@H]1CC[C@H](NC(=O)c2ccc3c(c2)OCO3)[C@H](CO)O1)NCc1ccc(Oc2ccccc2)cc1	-1.1	i	-20.8	-47.4	0.1
COc1ccccc1CNC(=O)C[C@H]1CC[C@H]2[C@@H](COC[C@@H](O)CN2C(=O)Nc2ccc(F)cc2)O1	2.1	i	-1.7	1.7	-0.3
O=C(NCC1CC1)[C@H]1[C@H](CO)[C@H]2Cn3c(ccc(C4=CCCC4)c3=O)[C@@H]1N2C(=O)C1CC1	-2.0	i	2.0	4.5	0.2
COc1ccc(S(=O)(=O)Nc2cccc3c2O[C@@H](CN(C)C(=O)Nc2ccc4c(c2)OCO4)[C@H](C)CN([C@@H](C)CO)C3=O)cc1	0.2	i	-3.0	-3.1	0.5
C[C@@H]1CN([C@H](C)CO)C(=O)c2cc(NC(=O)Cc3ccccc3)ccc2O[C@@H]1CN(C)CC1CCCCC1	-2.7	i	-0.1	-4.0	-2.9
N#C[C@H]1N[C@H](CO)[C@@H]1c1ccc(C2=CCCC2)cc1	1.3	i	11.2	16.9	6.4
CN1CCN(C(=O)C[C@H]2C[C@@H]3c4cc(NC(=O)Cc5ccncc5)ccc4O[C@@H]3[C@@H](CO)O2)CC1	-0.1	i	3.7	6.6	0.1
C[C@@H]1CN([C@@H](C)CO)C(=O)c2cc(NC(=O)Nc3cccc4ccccc34)ccc2O[C@@H](C)CCCCO[C@H]1CN(C)C(=O)CCCN(C)C	18.3	i	0.7	3.5	1.0
Cc1cccc(S(=O)(=O)N[C@H]2CC[C@@H](CCn3cc(-c4ccccn4)nn3)O[C@H]2CO)c1	0.1	i	-3.2	-15.7	-0.3
COCC(=O)N1[C@@H](C#N)[C@@H](c2ccc(C#Cc3ccccc3F)cc2)[C@@H]1CO	-0.4	i	-35.1	-54.2	0.5
C[C@@H]1CCCCO[C@H](CN(C)Cc2ccc(C(=O)O)cc2)[C@@H](C)CN([C@H](C)CO)C(=O)c2cc(NC(=O)Nc3ccc(C(F)(F)F)cc3)ccc2O1	-0.7	i	-1.3	4.3	-0.9
CC(C)NC(=O)NCC[C@@H]1CC[C@@H](NS(=O)(=O)c2ccc(Oc3ccccc3)cc2)[C@@H](CO)O1	2.9	i	-4.8	-16.4	0.3
C[C@@H]1CN([C@H](C)CO)C(=O)c2cccc(NC(=O)Nc3ccccc3)c2O[C@@H]1CN(C)Cc1ccc(Oc2ccccc2)cc1	2.1	i	-2.6	-36.8	12.2
COc1cccc(NC(=O)N2[C@@H](CO)[C@@H](c3ccccc3)[C@@H]2CNC(C)C)c1	1.0	i	5.3	2.3	-0.5
COc1ccc(CN(C)C[C@@H]2OCc3cnnn3CCCC(=O)N([C@H](C)CO)C[C@H]2C)cc1	0.5&0.0	i	10.0&1.9	1.1&-1.6	2.5&0.4
C[C@H](CO)N1C[C@H](C)[C@@H](CN(C)Cc2ccc(C(F)(F)F)cc2)OCCCC[C@H](C)Oc2ccc(NC(=O)Nc3ccc4c(c3)OCO4)cc2C1=O	2.1	i	3.7	1.1	0.4
COc1cc(-c2cc(NC=O)c3ncc(-c4cccc(C(=O)N(C)C)c4)n3c2)cc(OC)c1OC	0.8	i	3.4	4.0	1.6
CCCC(=O)Nc1ccc2c(c1)C(=O)N(C)C[C@@H](OC)[C@@H](C)CN[C@H](C)CO2	-0.8	i	0.3	1.0	-3.5
C[C@H]1CCCCO[C@H](CN(C)Cc2ccc(C(=O)O)cc2)[C@@H](C)CN([C@@H](C)CO)C(=O)c2cc(NC(=O)CCC(F)(F)F)ccc2O1	-3.5	i	3.0	1.1	2.0
C[C@H](NC(=O)[C@@H]1CCCN1C(=O)[C@@H]1CCCN1C(=O)c1cccs1)c1ccccc1	2.2	i	17.7	8.3	1.4
O=C(NC1CCCCC1)N1CC(=O)N2[C@H](C1)[C@@H](c1ccc(-c3cccc(F)c3)cc1)[C@@H]2CO	1.5	+	-34.8	-62.0	15.2
CCN(CC)S(=O)(=O)c1ccc(N2CCOCC2)c(NC(=O)c2cc3ccccc3o2)c1	1.7	i	-0.6	2.9	4.9
C[C@@H]1CCCCO[C@@H](CN(C)C(=O)Nc2ccc3c(c2)OCO3)[C@H](C)CN([C@H](C)CO)C(=O)c2cc(NS(C)(=O)=O)ccc2O1	0.7	i	-1.2	-3.2	-0.8
Nc1ccn(C2CCCO2)c(=O)n1 (centres undefined)	-3.2	i	9.0	18.5	-4.7
CO[C@H]1CN(C)C(=O)c2ccc(NC(C)=O)cc2OC[C@H](C)N(S(=O)(=O)c2cn(C)cn2)C[C@@H]1C	-0.8	i	0.5	4.2	0.8
CC(C)C(=O)Nc1ccc2c(c1)C(=O)N(C)[C@H]1CC[C@H](CC(=O)Nc3ccccc3)O[C@H]1CO2	0.5	i	1.2	-2.6	-1.8
CCCCc1cc2c(cn1)=C(OC(=O)c1cnc3ccccc3n1)C(C)(OC(=O)CC)C(=O)C=2 (centres undefined)	3.6	i	-3.1	2.3	6.8
C[C@@H]1CCCCO[C@H](CN(C)C(=O)CCC(F)(F)F)[C@H](C)CN([C@H](C)CO)C(=O)c2cc(N(C)C)ccc2O1	-2.6	i	-6.5	0.3	-2.5
C/C=C/c1ccc([C@H]2[C@@H](CO)N3CCCCN(S(=O)(=O)c4ccc(OC)cc4)C[C@@H]23)cc1	2.9	i	-18.7	-40.8	0.4
C[C@@H]1CCCCO[C@@H](CN(C)C(=O)Nc2ccccc2)[C@@H](C)CN([C@H](C)CO)C(=O)c2cc(NC(=O)NC3CCCCC3)ccc2O1	-2.4&-0.6	i	7.8&20.5	3.8&12.1	1.8&7.0

Fetched one by one from the entries so far, 2 records:
SMILES	AF4-AF9 inh	FGF22 binding	rRNA inh HTS	rRNA inh HTS OD600	rRNA inh HTS RFP
C[C@@H]1CN([C@H](C)CO)C(=O)c2cc(NC(=O)Cc3ccccc3)ccc2O[C@@H]1CN(C)CC1CCCCC1	-2.7	i	-0.1	-4.0	-2.9
O=C(C[C@H]1CC[C@@H]2NC[C@@H](O)COC[C@H]2O1)NCc1ccc(Oc2ccccc2)cc1	7.4	i	3.7	11.7	0.0

FGF22 binding: entries above that show a hit
SMILES	AF4-AF9 inh	FGF22 binding	rRNA inh HTS	rRNA inh HTS OD600	rRNA inh HTS RFP
O=C(NC1CCCCC1)N1CC(=O)N2[C@H](C1)[C@@H](c1ccc(-c3cccc(F)c3)cc1)[C@@H]2CO	1.5	+	-34.8	-62.0	15.2

Going on with the list:
SMILES	AF4-AF9 inh	FGF22 binding	rRNA inh HTS	rRNA inh HTS OD600	rRNA inh HTS RFP
CCOCc1nc(N)nc(N)c1-c1cccc(Cl)c1	-1.5	i	6.8	-0.5	-4.4
COC(=O)C[C@@H]1CC[C@@H]2[C@H](COc3ccc(NC(=O)C4CCOCC4)cc3C(=O)N2C)O1	-5.4	i	1.4	-0.2	2.8
COCC(=O)N1[C@@H](CO)[C@@H](c2ccc(-c3ccccc3OC)cc2)C12CN(C(C)=O)C2	1.6	i	0.2	3.9	-1.2
C[C@H](CO)N1C[C@H](C)[C@H](CN(C)C(=O)CN(C)C)Oc2ncc(-c3ccc(C(=O)N(C)C)cc3)cc2C1=O	-6.8	i	6.2	12.0	-2.0
CO[C@@H]1CC[C@@H]2CCN(C)C(=O)CCCN(C)C(=O)c3cccc(C#N)c3OC[C@H]1O2	13.6	i	1.0	-2.0	-1.7
O=C(C[C@H]1C[C@H]2c3cc(NC(=O)NC4CCCC4)ccc3O[C@H]2[C@@H](CO)O1)NCCc1ccccc1	-0.8	i	2.3	0.3	-0.7
